# T cruzi repl: T. cruzi replication inhibition; T. cruzi beta-gal in NIH3T3, luminescence, 90 h; AID 1885; 1.4% of 300,000 active; inhibition, % (no concentration beside the values);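 active = mean inhibition across valid replicates above about 55%, limit read from the data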;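 also: signal also drops with host cell toxicity which is not excluded here; 0% = plate median of DMSO wells and 100% = zero luminescence signal; higher percent means less beta-gal luminescence so fewer parasites; stock transfer was 50 nL into about 50 µL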
# A1 inh: inhibitors of the anti-apoptotic protein A1, read as caspase activation. MEF A1-2A-BIM cells, Caspase-Glo 3/7 luminescence, 3 h; percent of clofoctol response, vehicle zero. 0.066% of 330,000 active. caspase activation, % (test concentration not listed);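 active = over half of replicate activation scores above 10%, or exactly half above 10 with the replicate mean above 10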;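 also: wells of about 30 µL received 50 nL stock; many hits fall short of the cut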
# Beta apoptosis: blocks beta cell apoptosis. INS-1E cytokine-induced death, ATP luminescence, 48 h; percent of positive-control rescue, neutral wells zero. protection from apoptosis, % (concentration not given with the values). 0.8% of 300,000 active. AID 435005;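 active = all replicates at 75% or more, or half of them and the mean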;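 also: 0% = cytokine-treated negative control wells and 100% = positive control rescue; higher means more ATP so stronger rescue from cytokine killing; wells of about 40 µL received 100 nL stock; the first replicate is given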
# FGF22 binding: binders of recombinant human FGF22 by thermal shift; SYPRO orange fluorescence; percent of sucrose octasulfate shift, DMSO zero; calls only at 9.99 µM; 1.5% of 340,000 active; AID 651658;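 active = melting point raised past a set limit in the mean and every replicate; three in four hits are not shown here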
# Target sequence (Q9HCT0 whole entry, looked up): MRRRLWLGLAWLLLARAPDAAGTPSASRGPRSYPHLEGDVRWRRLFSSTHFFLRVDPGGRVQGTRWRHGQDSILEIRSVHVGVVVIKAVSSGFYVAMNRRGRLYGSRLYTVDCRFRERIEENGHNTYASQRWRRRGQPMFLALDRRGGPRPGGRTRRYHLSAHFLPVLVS
# E coli growth: inhibitors of Escherichia coli growth; OD600, 23 h; active compounds read low; OD600 absorbance (no concentration beside the values); 0.21% of 330,000 active; AID 1053175;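 active = OD600 absorbance below the run mean of sample wells minus 3.6 SD, in any replicate, cut at about 0.56 in these data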;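 also: stock transfer was 300 nL into about 60 µL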
# rRNA inh HTS: selective bacterial rRNA inhibition in E. coli | E. coli WT GFP vs humanized-ribosome RFP mutants, fluorescence, 24 h; active compounds read low; DMSO median 0, no signal -100 | GFP signal change (wild-type ribosome), % (concentration not given with the values) | 1.6% of 350,000 active | AID 720706;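 active = significant combined selectivity score with lowered wild-type GFP, culture density cut under 30%, mutant RFP and density less affected; inactive = any of these conditions unmet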; also: one replicate is shown; some compounds called inactive have numbers as strong as hits
# UCH37 DUB inh: blocks the human deubiquitinase UCH37; 0.33% of 330,000 active; inhibition, % (test concentration not listed); purified proteasome/UCH37, Ub-AMC cleavage fluorescence; Q9Y5K5; AID 588478;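 active = mean of two replicates above 20%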;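 also: 0% = compound-free wells with enzyme and 100% = wells lacking proteasome; stock transfer was 100 nL into about 20 µL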
# Target sequence (Q9Y5K5 whole entry, looked up): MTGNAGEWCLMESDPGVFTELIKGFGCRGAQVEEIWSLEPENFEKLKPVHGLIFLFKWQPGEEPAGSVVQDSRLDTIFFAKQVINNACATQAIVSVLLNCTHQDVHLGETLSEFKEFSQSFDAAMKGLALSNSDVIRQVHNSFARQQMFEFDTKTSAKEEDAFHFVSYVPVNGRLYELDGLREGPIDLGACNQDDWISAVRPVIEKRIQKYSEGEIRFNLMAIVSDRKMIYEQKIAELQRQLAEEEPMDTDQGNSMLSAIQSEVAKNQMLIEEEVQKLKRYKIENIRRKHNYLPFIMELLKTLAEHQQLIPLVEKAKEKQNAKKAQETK
#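 Material: human UCH37 enzyme supplied as purified proteasome complex. Measure: % inhibition of Ub-AMC cleavage fluorescence. Medium: pH 7.4 Tris-HCl (50 mM) with ovalbumin, ATP-MgCl2, DTT. Times: 30 min preincubation with enzyme, 25 min cleavage at room temperature. Detection: AMC fluorescence intensity at 355/460 nm.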
# AF4-AF9 inh: inhibitors of human MLL-AF4/AF9 interaction | P42568 | AlphaScreen, biotin-AF4 peptide binding to FLAG-AF9 | inhibition, % at 10 µM | 0.47% of 350,000 active;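 active = every replicate reaching a set inhibition limit, whatever the replicate mean, cut at about 25% in these data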;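 also: 0% = plate neutral control median and 100% = total signal loss; the record names both 10 and 1 µM as test concentration; the first replicate is given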
# Target sequence (P42568 whole entry, looked up): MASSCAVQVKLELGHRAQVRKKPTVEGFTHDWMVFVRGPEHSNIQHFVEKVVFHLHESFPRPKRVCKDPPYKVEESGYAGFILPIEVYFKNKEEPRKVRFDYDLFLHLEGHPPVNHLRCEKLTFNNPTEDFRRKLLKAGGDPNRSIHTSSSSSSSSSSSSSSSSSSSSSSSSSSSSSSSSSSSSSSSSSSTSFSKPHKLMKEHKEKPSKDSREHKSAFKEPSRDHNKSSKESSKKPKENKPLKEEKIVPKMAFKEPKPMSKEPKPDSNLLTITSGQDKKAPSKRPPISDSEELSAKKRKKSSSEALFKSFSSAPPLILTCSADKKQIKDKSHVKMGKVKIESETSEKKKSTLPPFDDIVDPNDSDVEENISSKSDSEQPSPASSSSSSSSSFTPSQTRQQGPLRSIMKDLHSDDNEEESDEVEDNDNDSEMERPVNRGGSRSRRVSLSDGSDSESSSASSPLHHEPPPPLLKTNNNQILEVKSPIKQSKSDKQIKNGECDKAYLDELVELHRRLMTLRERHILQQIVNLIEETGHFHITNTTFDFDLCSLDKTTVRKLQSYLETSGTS
# rRNA inh HTS OD600: recorded beside rRNA inh HTS, whose call it bears; OD600 change, %; measured here: OD600 growth;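 optical density of the mix in the first replicate; 0 = DMSO median and -100 = no signal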
# rRNA inh HTS RFP: further read-out of rRNA inh HTS, marked with its call; RFP signal change, %; measured here: RFP humanized mutant strains;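 first replicate; 0 = DMSO median and -100 = no signal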
# * hit, by the source's call; i = inactive; x = not tested or not shown; + = active, no number. Some of the compounds tested; rates above refer to the full screens.
SMILES,T cruzi repl,A1 inh,Beta apoptosis,FGF22 binding,E coli growth,rRNA inh HTS,rRNA inh HTS OD600,rRNA inh HTS RFP,UCH37 DUB inh,AF4-AF9 inh
COc1ccc2[nH]c(=O)c(CNc3ccccc3)cc2c1,-2.1,0.2,-2.9,x,0.659,x,x,x,-7.6,x
CCN(Cc1ccccc1)C(=O)c1cc(S(=O)(=O)N2CCOCC2)cn1C,-3.3,-0.3,-5.8,i,0.731,4.3,10.4,-2.9,2.4,-6.0
O=C(Nc1ccccc1)N(Cc1cccs1)C1CCCC1,6.7,-0.5,1.5,x,0.776,x,x,x,1.3,x
CC(C(=O)c1ccc(-c2ccccc2)cc1)[n+]1ccccc1 (stereo not given),-1.4,0.7,21.7,x,0.71,x,x,x,0.3,x
CCn1c(SCC(=O)Nc2ccc(C)cc2)nnc1-c1ccccn1,-2.3,-0.3,-3.9,i,0.657,-5.6,-9.0,-4.6,0.4,0.3
CC(C)(C)c1ccc(CNC(=O)c2ccc3c(c2)NC(=O)CO3)cc1,2.0,0.4,5.2,i,0.698,-3.7,2.5,-1.1,3.8,-4.1
Cc1cc(=O)oc2c3c(ccc12)OC/C3=N/N,-4.0,-0.6,1.9,i,x,2.4,-5.5,-8.6,x,2.6
Cc1[nH]c(C)c(S(=O)(=O)N(C)Cc2ccccc2)c1C(=O)N1CCCCC1,-6.8,0.0,1.6,i,0.698,-0.2,-9.7,4.1,2.0,-7.4
CCn1c(COc2ccc3ccccc3c2C)nnc1SCC(=O)Nc1cccc(C(=O)O)c1,-5.5,-0.1,-3.1,i,0.643,-7.4,-24.2,-7.6,2.4,0.6
Cc1oc(-c2cc(F)ccc2F)nc1CN1CCN(c2ncnc3ccccc23)CC1,x,-1.1,23.2,i,0.711,-18.6,-16.1,1.7,-1.0,2.0
COc1cc(NC(=O)Cn2cnc3c(OCc4ccccc4)ncnc32)cc(OC)c1OC,x,-1.2,-2.9,i,0.727,10.1,25.5,0.6,4.8,0.2
Cc1ccc(-c2nc3ccccc3nc2Cl)cc1,-12.9,0.2,2.0,i,0.692,20.4,16.4,-0.3,-4.9,-1.3
O=C(NCc1ccncc1)Nc1ccccc1Cl,-3.6,-0.3,-7.5,x,0.716,x,x,x,3.9,x
N/C(=N\N=C\c1ccc2c(c1)OCO2)SC1CC(=O)N(c2ccc(C(=O)O)cc2)C1=O (stereo not given),-1.7,-0.4,0.4,i,x,-4.1,3.6,-2.7,x,-0.4
O=c1sc(Nc2ccccc2)nc2ccsc12,-10.7,-1.6,2.3,x,0.596,x,x,x,-17.2,x
COC(=O)C1CCN(C(=O)COC(=O)Cc2c[nH]c3ccccc23)CC1,-24.3,0.9,-0.4,x,0.686,x,x,x,2.6,x
COCCN(Cc1cc2cc3c(cc2n2nnnc12)OCO3)C(=O)c1ccccc1F,8.3,0.1,-3.0,x,0.678,x,x,x,-16.9,x
CC1=C(C(=O)N2CCOCC2)C(c2ccccc2F)C2=C(CCCC2=O)N1 (stereo not given),-9.8,-0.3,x,x,0.701,11.0,3.0,-2.1,-255.3,x
COc1ccccc1-c1c(C(F)(F)F)oc2cc(OS(C)(=O)=O)ccc2c1=O,16.0,-0.1,9.4,i,0.673,-26.5*,-9.2*,2.7*,2.2,-3.3
CC(C)OC(=O)CN1C(=O)C(=O)c2ccccc21,-16.5,-0.1,-12.1,x,0.689,x,x,x,6.7,x
CC(=O)c1cccc(NC(=S)N2CCc3ccccc32)c1,10.6,0.3,3.6,i,0.677,0.5,1.8,2.1,1.9,-1.4
CCOc1cc(S(=O)(=O)N2CC=C(c3ccc(F)cc3)CC2)c(OCC)cc1-n1cnnn1,35.4,-0.4,31.5,x,0.726,x,x,x,-12.5,x
O=C(C(=O)N1CCN(Cc2ccccc2)CC1)c1c[nH]c2ccccc12,x,1.3,x,i,0.706,1.7,14.3,10.4,6.4,-2.3
N#Cc1cc2[nH]c3ccccc3c2[n+](-c2ccc([N+](=O)[O-])cc2)c1N,48.0,0.9,39.1,i,0.704,-0.2,-2.3,-2.8,19.0,2.2
COc1ccc(NC(=S)N(C)CC2COc3ccccc3O2)cc1 (stereo not given),-3.9,0.8,-2.9,i,0.702,13.4,4.4,1.1,1.9,-1.4
# (more compounds)
SMILES,T cruzi repl,A1 inh,Beta apoptosis,FGF22 binding,E coli growth,rRNA inh HTS,rRNA inh HTS OD600,rRNA inh HTS RFP,UCH37 DUB inh,AF4-AF9 inh
C=CCn1c(SCc2csc(C)n2)nc2sc3c(c2c1=O)CCC(C)C3 (stereo not given),18.9,0.8,6.1,x,0.73,x,x,x,-3.0,x
O=C(Cn1cncn1)NCc1cccc2ccccc12,-32.2,0.4,-2.9,x,0.681,x,x,x,3.2,x
O=C(C1CCN(S(=O)(=O)c2ccc(Cl)cc2)CC1)N1CCCC1,-7.1,0.8,-5.3,i,0.681,7.0,16.6,0.1,2.7,-0.2
COc1cccc(OCCNc2cc(Cl)ccc2[N+](=O)[O-])c1,10.2,-1.2,5.8,x,0.74,x,x,x,-0.8,x
O=C(N/N=C/c1ccc(O)cc1)c1cccc(N/N=C/c2ccc(O)cc2)c1,-11.7,-3.7,-3.3,+,x,-8.1,-3.7,-0.1,x,6.4
CC1CCCCN1C(=O)Cc1ccc(Cl)cc1 (stereo not given),-0.6,-0.1,4.8,x,0.714,x,x,x,4.2,x
CN(C)C(CNC(=O)C1CCN(S(=O)(=O)c2ccccc2)CC1)c1ccccc1 (stereo not given),16.3,1.1,-2.7,i,0.663,10.2,-1.5,-2.2,1.6,1.2
COc1ccc(Br)cc1CNC(=O)CCC(=O)n1nc(C)c2ccccc21,-19.6,-0.8,-5.6,i,0.699,2.4,6.6,1.1,1.3,-0.2
COc1ccc(C)cc1NC(=O)CCNS(=O)(=O)c1ccc2c(c1)CC(C)N2C(C)=O (stereo not given),-15.4,0.6,x,i,0.697,2.3,1.2,1.5,5.7,2.5
COc1ccc(-n2cc(CNCC3CC(=O)N(C4CC4)C3)c(-c3ccccc3Cl)n2)cc1 (stereo not given),-9.2,-0.8,-0.2,i,0.614,-25.9,-24.9,-1.3,1.3,2.4
O=C1NCCc2c1[nH]c1c(Cl)ccc(Cl)c21,-0.8,-0.4,-17.3,x,0.7,x,x,x,1.6,x
CCCn1cc(S(=O)(=O)c2ccc(C)cc2)c(=O)c2cc(OC)c(OC)cc21,-2.2,3.6,-4.2,i,0.736,-6.5,-3.9,-0.3,-0.3,1.2
CCOC(=O)N1CCC(NC(=O)CCc2c(C)nc3c(c(C)nn3C(C)(C)C)c2C)CC1,8.4,-0.3,x,x,0.65,x,x,x,2.3,x
O=C(CSc1nnc(-c2ccccc2)o1)NC1CCS(=O)(=O)C1 (stereo not given),-2.2,-0.6,-11.5,i,0.649,8.4,9.8,-14.2,3.9,-17.0
Cc1cc(C)c(S(=O)(=O)Nc2c(C)n(C)n(-c3ccccc3)c2=O)cc1[N+](=O)[O-],-1.1,0.5,-3.1,i,0.677,7.7,13.4,7.1,0.2,-3.3
C=CCn1c(COc2ccc3c(c2)CCCC3)nnc1SCC(=O)Nc1cccc(SC)c1,0.3,-0.4,-8.6,x,0.76,x,x,x,1.9,x
Cc1ccc(C(=O)OCC(=O)NCC2CCCO2)c(C)c1 (stereo not given),-0.3,1.5,-0.9,i,0.703,6.5,2.8,0.3,-0.5,-4.8
COc1ccccc1NC(=O)CCCc1c[nH]c2ccccc12,14.3,-0.3,6.2,i,0.67,-14.6,-19.9,-2.8,-0.2,3.4
CCCCN(CC)CCCNC(=O)c1cc2c(=O)n(CC)c3ccccc3c2s1,39.3,1.2,4.3,i,x,-4.5,-13.6,11.1,x,4.5
CCOc1ccc(Br)cc1S(=O)(=O)Nc1cccc(S(=O)(=O)N(C)C)c1,-0.6,0.7,-5.3,i,0.649,-41.3,-61.5,-12.9,1.3,0.7
CC(C)(C)NS(=O)(=O)c1ccc(CCC(=O)Nc2ccc3c(c2)OCO3)cc1,-5.8,1.4,-4.5,x,0.696,x,x,x,1.3,x
COc1ccc(CCNC(=O)CCc2nc3ccccc3[nH]2)cc1OC,3.8,0.7,5.4,i,0.674,-14.5,-15.2,12.1,1.6,-0.8
O=C(O)c1cccc(S(=O)(=O)N(Cc2ccccc2)c2cccc(C(F)(F)F)c2)c1,-10.2,0.0,-5.2,i,0.686,-14.8,-5.4,-5.4,-1.3,-1.9
COc1ccc(CNCc2cccc(OC)c2OC)cc1Br,-9.2,-0.2,1.6,i,0.617,-14.2,-14.1,0.0,2.1,2.7
COc1ccc(NC(=O)C2CCCN(S(=O)(=O)c3ccc(C)cc3)C2)cc1OC (stereo not given),17.6,0.2,-0.5,x,0.669,x,x,x,-0.5,x

# 8 of these compounds, set out differently:
structure	T cruzi repl	A1 inh	Beta apoptosis	FGF22 binding	E coli growth	rRNA inh HTS	rRNA inh HTS OD600	rRNA inh HTS RFP	UCH37 DUB inh	AF4-AF9 inh
C=CCn1c(SCc2csc(C)n2)nc2sc3c(c2c1=O)CCC(C)C3 (stereo not given)	18.9	0.8	6.1	x	0.73	x	x	x	-3.0	x
O=C(Cn1cncn1)NCc1cccc2ccccc12	-32.2	0.4	-2.9	x	0.681	x	x	x	3.2	x
O=C(C1CCN(S(=O)(=O)c2ccc(Cl)cc2)CC1)N1CCCC1	-7.1	0.8	-5.3	i	0.681	7.0	16.6	0.1	2.7	-0.2
COc1cccc(OCCNc2cc(Cl)ccc2[N+](=O)[O-])c1	10.2	-1.2	5.8	x	0.74	x	x	x	-0.8	x
O=C(N/N=C/c1ccc(O)cc1)c1cccc(N/N=C/c2ccc(O)cc2)c1	-11.7	-3.7	-3.3	+	x	-8.1	-3.7	-0.1	x	6.4
CC1CCCCN1C(=O)Cc1ccc(Cl)cc1 (stereo not given)	-0.6	-0.1	4.8	x	0.714	x	x	x	4.2	x
CN(C)C(CNC(=O)C1CCN(S(=O)(=O)c2ccccc2)CC1)c1ccccc1 (stereo not given)	16.3	1.1	-2.7	i	0.663	10.2	-1.5	-2.2	1.6	1.2
COc1ccc(Br)cc1CNC(=O)CCC(=O)n1nc(C)c2ccccc21	-19.6	-0.8	-5.6	i	0.699	2.4	6.6	1.1	1.3	-0.2

# (next part)
SMILES,T cruzi repl,A1 inh,Beta apoptosis,FGF22 binding,E coli growth,rRNA inh HTS,rRNA inh HTS OD600,rRNA inh HTS RFP,UCH37 DUB inh,AF4-AF9 inh
O=C(O)c1ccc(/C=N/NC(=O)c2ccc(NS(=O)(=O)c3cccs3)cc2)cc1,-2.1,0.8,-2.0,i,x,-3.7,0.5,3.6,x,2.1
CC(C)C(NC(=O)OCc1ccccc1)C(=O)O (stereo not given),-0.9,0.0,-7.1,x,0.733,x,x,x,6.4,x
O=c1c2cc(-c3ccccc3)sc2nc2n1N=C(c1cccs1)CS2,38.5,-6.6,9.3,i,0.718,1.1,6.7,0.5,-0.1,x
CC(C)C(=O)NCCc1nc2ccccc2n1CCOc1ccccc1,7.5,0.7,0.9,i,0.666,-1.3,0.2,-3.4,1.3,3.8
COc1ccccc1/C=C1\NC(=S)N(CC2CCCO2)C1=O (stereo not given),21.5,0.2,4.9,x,0.624,x,x,x,9.1,x
O=C(CCC(=O)c1ccc(Br)cc1)Nc1cccnc1,-8.7,0.5,-2.6,i,0.692,2.9,7.0,1.3,5.8,-0.6

# Bioassay records as filed in PubChem.
